# Ran importin = inhibitors of Ran–importin-beta complex formation, primary screen, biochemical, CFP-Ran/YFP-importin-beta FRET, RCC1, cell-free (AID 434961) | Regulator of chromosome condensation (Homo sapiens) + GTP-binding nuclear protein Ran … | actives 0.2% (n = 7,700) | CFP-Ran/YFP-importin-beta FRET, cell-free; stronger effect = higher value | inhibition, %;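 active = more than half of the replicate wells above 15% inhibition; inconclusive = exactly half above it; inactive = fewer than half above it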;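 also: 0% = DMSO wells and 100% inhibition = RanGDP control wells on each plate; stock of unstated strength diluted about 400-fold; mean of two wells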
# An asterisk follows results filed as active; u = inconclusive. Not all compounds are listed; rates above refer to the full screens.
# The first three records, ahead of the listing:
SMILES,Ran importin
C[C@@H]1CCCCO[C@H](CN(C)C(=O)CCCN(C)C)[C@@H](C)CN([C@H](C)CO)C(=O)c2cc(NC(=O)c3ccncc3)ccc2O1,-8.0
Cc1noc(C)c1NC(=O)N(C)C[C@@H]1Oc2ccc(NC(=O)CCCN(C)C)cc2C(=O)N([C@@H](C)CO)C[C@H]1C,0.9
COc1ccc(CN(C)C[C@@H]2Oc3ccc(NC(=O)Nc4ccc(OC)cc4)cc3CC(=O)N([C@H](C)CO)C[C@H]2C)cc1,-1.4

# The whole of this part, repeating the preview:
SMILES,Ran importin
C[C@@H]1CCCCO[C@H](CN(C)C(=O)CCCN(C)C)[C@@H](C)CN([C@H](C)CO)C(=O)c2cc(NC(=O)c3ccncc3)ccc2O1,-8.0
Cc1noc(C)c1NC(=O)N(C)C[C@@H]1Oc2ccc(NC(=O)CCCN(C)C)cc2C(=O)N([C@@H](C)CO)C[C@H]1C,0.9
COc1ccc(CN(C)C[C@@H]2Oc3ccc(NC(=O)Nc4ccc(OC)cc4)cc3CC(=O)N([C@H](C)CO)C[C@H]2C)cc1,-1.4
COc1ccc(S(=O)(=O)N(C)C[C@@H]2Oc3c(NC(=O)Nc4c(C)noc4C)cccc3C(=O)N([C@@H](C)CO)C[C@@H]2C)cc1,-1.7
CNC[C@@H]1Oc2ccc(NC(=O)Nc3ccc(F)cc3)cc2C(=O)N([C@H](C)CO)C[C@@H]1C,1.1
C[C@H](CO)N1C[C@H](C)[C@H](CN(C)C(=O)Nc2ccccc2)OCCCC[C@H](C)Oc2ccc(N(C)C)cc2C1=O,4.3
Cc1noc(C)c1NC(=O)N(C)C[C@@H]1OCCCC[C@H](C)Oc2ccc(NS(=O)(=O)c3cccs3)cc2C(=O)N([C@@H](C)CO)C[C@@H]1C,2.0
C[C@@H]1CCCCO[C@H](CN(C)C(=O)CCC(F)(F)F)[C@H](C)CN([C@@H](C)CO)C(=O)c2cc(NS(=O)(=O)c3cccs3)ccc2O1,-5.3
C[C@H](CO)N1C[C@H](C)[C@H](CN(C)C(=O)NC2CCCCC2)Oc2ccc(NC(=O)Nc3ccc4c(c3)OCO4)cc2C1=O,-5.5
C[C@@H]1CN([C@H](C)CO)C(=O)CCCn2nncc2CO[C@H]1CN(C)C(=O)Nc1ccc(C(C)(C)C)cc1,1.6

# 2 of the compounds above, with the structure last.
Ran importin	molecule
1.1	CNC[C@@H]1Oc2ccc(NC(=O)Nc3ccc(F)cc3)cc2C(=O)N([C@H](C)CO)C[C@@H]1C
4.3	C[C@H](CO)N1C[C@H](C)[C@H](CN(C)C(=O)Nc2ccccc2)OCCCC[C@H](C)Oc2ccc(N(C)C)cc2C1=O

# The list goes on.
SMILES,Ran importin
C[C@@H]1CN([C@H](C)CO)C(=O)c2cc(NC(=O)Nc3ccccc3)ccc2O[C@@H](C)CCCCO[C@H]1CN(C)S(=O)(=O)c1ccccc1,-4.1
COc1ccc(NC(=O)Nc2ccc3c(c2)C(=O)N([C@H](C)CO)C[C@H](C)[C@@H](CN(C)S(=O)(=O)c2cn(C)cn2)O3)cc1,-2.3
C[C@@H]1CN([C@H](C)CO)C(=O)c2cc(NC(=O)Nc3ccc(F)cc3)ccc2O[C@@H](C)CCCCO[C@@H]1CN(C)C(=O)c1ccccc1,3.1
C[C@@H]1CN([C@H](C)CO)C(=O)c2cc(NC(=O)Nc3ccc(C(F)(F)F)cc3)ccc2O[C@@H](C)CCCCO[C@H]1CN(C)C,7.7
COc1ccc(S(=O)(=O)Nc2ccc3c(c2)C(=O)N([C@H](C)CO)C[C@@H](C)[C@H](CN(C)Cc2ccc4c(c2)OCO4)O3)cc1,-2.1
C[C@H](CO)N1C[C@H](C)[C@@H](CN(C)C(=O)CCCN(C)C)OCCCC[C@H](C)Oc2ccc(NC(=O)c3ccncc3)cc2C1=O,3.8
COc1ccc(NC(=O)Nc2cccc3c2O[C@H](CN(C)S(=O)(=O)c2cn(C)cn2)[C@@H](C)CN([C@H](C)CO)C3=O)cc1,2.7
Cc1ccc(S(=O)(=O)Nc2ccc3c(c2)CC(=O)N([C@H](C)CO)C[C@H](C)[C@H](CN(C)Cc2ccncc2)O3)cc1,-1.8
Cc1noc(C)c1S(=O)(=O)Nc1ccc2c(c1)C(=O)N([C@H](C)CO)C[C@@H](C)[C@H](CN(C)C(=O)Cc1ccccc1)OCCCC[C@@H](C)O2,-1.3
C[C@@H]1CN([C@@H](C)CO)C(=O)Cc2cc(N(C)C)ccc2O[C@H]1CN(C)Cc1ccccc1,-1.5
C[C@H]1CN([C@@H](C)CO)C(=O)Cc2cc(NC(=O)Cc3ccccc3)ccc2O[C@@H]1CN(C)CC1CC1,-4.9
C[C@@H]1CN([C@@H](C)CO)C(=O)c2cccc(NS(=O)(=O)c3cccs3)c2O[C@@H]1CN(C)C(=O)Nc1ccc(C(F)(F)F)cc1,-3.2
C[C@@H]1CN([C@@H](C)CO)C(=O)c2cc(NC(=O)Nc3cccc4ccccc34)ccc2O[C@@H]1CN(C)C(=O)Nc1ccc2c(c1)OCO2,1.1
Cc1noc(C)c1S(=O)(=O)Nc1cccc2c1O[C@H](CN(C)C(=O)Nc1cccc3ccccc13)[C@H](C)CN([C@@H](C)CO)C2=O,-2.5
Cc1noc(C)c1NC(=O)Nc1ccc2c(c1)C(=O)N([C@@H](C)CO)C[C@@H](C)[C@H](CN(C)C(=O)NC1CCCCC1)O2,4.7
C[C@@H]1CN([C@@H](C)CO)C(=O)c2cc(NC(=O)Nc3ccc4c(c3)OCO4)ccc2O[C@@H]1CN(C)C(=O)Nc1ccc(C(F)(F)F)cc1,3.7
COc1ccc(S(=O)(=O)Nc2ccc3c(c2)C(=O)N([C@H](C)CO)C[C@@H](C)[C@@H](CN(C)S(=O)(=O)c2ccc(OC)cc2)O3)cc1,7.0
COc1ccc(CN(C)C[C@@H]2Oc3c(NC(=O)NC4CCCCC4)cccc3C(=O)N([C@H](C)CO)C[C@H]2C)cc1,-5.5
Cc1noc(C)c1NC(=O)N(C)C[C@@H]1Oc2ccc(NC(=O)CCCN(C)C)cc2C(=O)N([C@@H](C)CO)C[C@@H]1C,7.9
CC(C)NC(=O)N(C)C[C@@H]1Oc2ccc(NS(=O)(=O)c3cn(C)cn3)cc2CC(=O)N([C@H](C)CO)C[C@@H]1C,1.0
CC(C)NC(=O)Nc1cccc2c1O[C@@H](CN(C)Cc1ccccc1)[C@@H](C)CN([C@@H](C)CO)C2=O,0.1
C[C@@H]1CCCCO[C@@H](CN(C)C)[C@H](C)CN([C@@H](C)CO)C(=O)c2cc(NC(=O)Nc3ccc(F)cc3)ccc2O1,0.5
C[C@@H]1CN([C@H](C)CO)C(=O)Cc2cc(NC(=O)Nc3ccc(F)cc3)ccc2O[C@@H]1CN(C)Cc1ccc2c(c1)OCO2,-3.1
Cc1noc(C)c1S(=O)(=O)N(C)C[C@H]1OCCCC[C@H](C)Oc2ccc(NS(C)(=O)=O)cc2C(=O)N([C@H](C)CO)C[C@@H]1C,2.1
C[C@@H]1CCCCO[C@H](CN(C)C)[C@@H](C)CN([C@H](C)CO)C(=O)c2cc(NC(=O)Nc3cccc4ccccc34)ccc2O1,-1.4
COc1ccc(CN(C)C[C@H]2Oc3c(NS(=O)(=O)c4ccc(OC)cc4)cccc3C(=O)N([C@H](C)CO)C[C@H]2C)cc1,-3.2
Cc1noc(C)c1NC(=O)N(C)C[C@H]1Oc2ccc(NC(=O)CCCN(C)C)cc2C(=O)N([C@@H](C)CO)C[C@H]1C,-1.3
Cc1noc(C)c1S(=O)(=O)N(C)C[C@H]1Oc2ccc(NC(=O)CCN3CCOCC3)cc2CC(=O)N([C@H](C)CO)C[C@@H]1C,-5.9
CNC[C@@H]1Oc2ccc(NC(=O)Nc3ccc(OC)cc3)cc2C(=O)N([C@H](C)CO)C[C@@H]1C,1.6
C[C@@H]1CN([C@@H](C)CO)C(=O)CCCn2cc(nn2)CO[C@H]1CN(C)C(=O)CCC(F)(F)F,-1.1
C[C@@H]1CN([C@@H](C)CO)C(=O)c2cc(NC(=O)CCN3CCOCC3)ccc2O[C@H]1CN(C)Cc1ccc(C(F)(F)F)cc1,0.8
C[C@H]1CCCCO[C@H](CN(C)C(=O)Cc2ccccc2)[C@@H](C)CN([C@@H](C)CO)C(=O)c2cc(NC(=O)c3ccncc3)ccc2O1,-0.1
C[C@H](CO)N1C[C@H](C)[C@@H](CN(C)C(=O)Nc2ccc(N3CCN(C)CC3)cc2)OCc2cnnn2CCCC1=O,u
C[C@H](CO)N1C[C@H](C)[C@H](CN(C)Cc2ccc(-c3ccccc3)cc2)Oc2ccc(NS(C)(=O)=O)cc2CC1=O,0.6
C[C@H]1CCCCO[C@@H](CN(C)Cc2ccccc2)[C@@H](C)CN([C@@H](C)CO)C(=O)c2cc(NS(=O)(=O)c3cn(C)cn3)ccc2O1,1.0
COc1ccc(CN(C)C[C@@H]2Oc3c(NC(=O)c4cnccn4)cccc3C(=O)N([C@@H](C)CO)C[C@H]2C)cc1,1.2
COc1ccc(S(=O)(=O)Nc2cccc3c2O[C@H](CN(C)S(=O)(=O)c2cn(C)cn2)[C@@H](C)CN([C@@H](C)CO)C3=O)cc1,-2.0
Cc1noc(C)c1S(=O)(=O)N(C)C[C@H]1Oc2ccc(NS(=O)(=O)c3cn(C)cn3)cc2C(=O)N([C@H](C)CO)C[C@H]1C,u
C[C@H]1CN([C@@H](C)CO)C(=O)CCCn2cc(nn2)CO[C@@H]1CN(C)C(=O)Nc1cccc(Oc2ccccn2)c1,0.9
Cc1noc(C)c1NC(=O)N(C)C[C@@H]1Oc2ccc(NC(=O)C3CC3)cc2CC(=O)N([C@@H](C)CO)C[C@H]1C,3.3
Cc1noc(C)c1S(=O)(=O)Nc1ccc2c(c1)C(=O)N([C@H](C)CO)C[C@H](C)[C@H](CN(C)C(=O)NC(C)C)OCCCC[C@H](C)O2,u
C[C@@H]1CN([C@@H](C)CO)C(=O)Cc2cc(NC(=O)Cc3cn(C)c4ccccc34)ccc2O[C@@H]1CN(C)CC1CC1,-5.7
C[C@@H]1CN([C@@H](C)CO)C(=O)c2cccc(NS(C)(=O)=O)c2O[C@@H]1CN(C)Cc1ccc(C(F)(F)F)cc1,-5.8
C[C@H]1CCCCO[C@H](CN(C)C)[C@@H](C)CN([C@@H](C)CO)C(=O)c2cc(N(C)C)ccc2O1,-3.5
CC(C)NC(=O)N(C)C[C@@H]1Oc2ccc(NS(=O)(=O)c3ccccc3)cc2CC(=O)N([C@H](C)CO)C[C@@H]1C,3.3
CC(C)NC(=O)Nc1ccc2c(c1)C(=O)N([C@H](C)CO)C[C@@H](C)[C@H](CN(C)Cc1ccccc1)OCCCC[C@@H](C)O2,4.5
C[C@@H]1CN([C@@H](C)CO)C(=O)c2cccc(NC(=O)Nc3ccc(C(F)(F)F)cc3)c2O[C@@H]1CN(C)S(=O)(=O)c1ccc(Cl)cc1,-3.7
Cc1noc(C)c1S(=O)(=O)N(C)C[C@@H]1Oc2c(cccc2N(C)C)C(=O)N([C@H](C)CO)C[C@@H]1C,5.7
CNC[C@@H]1Oc2ncc(-c3ccc(OC)cc3)cc2C(=O)N([C@H](C)CO)C[C@@H]1C,-0.8
CC(C)NC(=O)Nc1ccc2c(c1)C(=O)N([C@@H](C)CO)C[C@@H](C)[C@H](CN(C)C(=O)c1ccncc1)OCCCC[C@H](C)O2,-1.8
# The results go on:
SMILES,Ran importin
C[C@H]1CN([C@@H](C)CO)C(=O)Cc2cc(NC(=O)NC3CCCCC3)ccc2O[C@@H]1CN(C)C(=O)Nc1ccc2c(c1)OCO2,-1.1
C[C@H]1CN([C@@H](C)CO)C(=O)Cc2cc(NC(=O)Nc3ccccc3)ccc2O[C@@H]1CN(C)C(=O)Nc1ccc(F)cc1,-1.6
C[C@@H]1CCCCO[C@H](CN(C)C(=O)Nc2ccccc2)[C@H](C)CN([C@H](C)CO)C(=O)c2cc(NC(=O)C3CCCCC3)ccc2O1,-2.9
COc1ccc(S(=O)(=O)N(C)C[C@@H]2Oc3ccc(NC(=O)Cc4ccccc4)cc3CC(=O)N([C@@H](C)CO)C[C@@H]2C)cc1,u
C[C@@H]1CN([C@H](C)CO)C(=O)c2cc(NC(=O)NC3CCCCC3)ccc2O[C@@H]1CN(C)C(=O)Nc1ccc2c(c1)OCO2,2.0
C[C@@H]1CN([C@H](C)CO)C(=O)c2cccc(NC(=O)C3CCOCC3)c2O[C@H]1CN(C)C(=O)Nc1ccccc1,1.3
C[C@H](CO)N1C[C@H](C)[C@@H](CN(C)C(=O)Nc2ccc(C(F)(F)F)cc2)Oc2c(NC(=O)c3ccncc3)cccc2C1=O,5.0
C[C@H]1CCCCO[C@@H](CN(C)S(=O)(=O)c2ccccc2)[C@@H](C)CN([C@@H](C)CO)C(=O)c2cc(NS(=O)(=O)c3ccccc3)ccc2O1,-4.8
C[C@@H]1CN([C@@H](C)CO)C(=O)Cc2cc(NC(=O)Nc3ccccc3)ccc2O[C@H]1CN(C)C(=O)Nc1ccc(F)cc1,-2.7
C[C@@H]1CCCCO[C@H](CN(C)C(=O)Nc2ccc3c(c2)OCO3)[C@H](C)CN([C@H](C)CO)C(=O)c2cc(NS(C)(=O)=O)ccc2O1,-3.9
C[C@@H]1CN([C@H](C)CO)C(=O)c2cc(NC(=O)Nc3ccc(F)cc3)ccc2O[C@@H]1CN(C)C,-2.6
C[C@H]1CN([C@@H](C)CO)C(=O)c2cccc(NS(C)(=O)=O)c2O[C@H]1CN(C)C(=O)Nc1cccc2ccccc12,-7.1
Cc1noc(C)c1NC(=O)Nc1ccc2c(c1)C(=O)N([C@@H](C)CO)C[C@@H](C)[C@@H](CN(C)C(=O)CCCN(C)C)OCCCC[C@@H](C)O2,-4.3

# A few values from the entries so far.
# COc1ccc(CN(C)C[C@@H]2Oc3c(NC(=O)c4cnccn4)cccc3C(=O)N([C@@H](C)CO)C[C@H]2C)cc1 | Ran importin: 1.2
# Cc1noc(C)c1NC(=O)N(C)C[C@H]1Oc2ccc(NC(=O)CCCN(C)C)cc2C(=O)N([C@@H](C)CO)C[C@H]1C | Ran importin: -1.3

# Assay outcomes: PubChem, Broad Institute
